RecA intein inh – blocks M. tuberculosis RecA intein splicing; P9WHJ3; cell-free RecA intein splicing, fluorescence; inhibition, %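 (about 9 µM by stock and volumes)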; hit rate 0.75% among 290,000; AID 2221; in the data active = inhibition above about 30%; inconclusive = no clear call, values can overlap the other calls;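 note: 0% = vehicle wells and 100% = reference inhibitor control wells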
Target sequence (P9WHJ3 whole entry, looked up): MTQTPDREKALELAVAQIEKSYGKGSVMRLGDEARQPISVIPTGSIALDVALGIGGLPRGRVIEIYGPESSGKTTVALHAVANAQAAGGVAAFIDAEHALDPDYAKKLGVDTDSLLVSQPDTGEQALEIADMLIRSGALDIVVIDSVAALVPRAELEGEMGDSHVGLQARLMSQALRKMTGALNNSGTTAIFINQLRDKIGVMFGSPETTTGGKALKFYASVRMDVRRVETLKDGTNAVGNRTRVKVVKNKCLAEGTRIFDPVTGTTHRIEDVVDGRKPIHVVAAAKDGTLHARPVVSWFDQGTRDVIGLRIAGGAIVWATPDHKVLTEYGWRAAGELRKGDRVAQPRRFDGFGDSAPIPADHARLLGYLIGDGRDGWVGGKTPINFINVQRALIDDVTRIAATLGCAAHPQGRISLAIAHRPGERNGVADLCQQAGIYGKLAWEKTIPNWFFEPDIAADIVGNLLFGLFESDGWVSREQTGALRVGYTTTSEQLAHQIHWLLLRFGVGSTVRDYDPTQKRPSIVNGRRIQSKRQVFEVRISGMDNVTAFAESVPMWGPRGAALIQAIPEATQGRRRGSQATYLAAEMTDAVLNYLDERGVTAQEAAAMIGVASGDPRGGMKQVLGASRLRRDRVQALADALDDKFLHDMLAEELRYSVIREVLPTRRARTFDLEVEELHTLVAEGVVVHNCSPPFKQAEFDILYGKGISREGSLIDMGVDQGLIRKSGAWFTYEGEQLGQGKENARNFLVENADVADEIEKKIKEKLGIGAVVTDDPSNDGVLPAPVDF
Mtb bLac sens – beta-lactam sensitization of Mtb H37Rv. M. tuberculosis H37Rv growth with meropenem, percent inhibition; hits of this screen are not shown here. inhibition, % at 25 µM. hit rate 0.27% among 330,000;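 active = about 74% or more and at least 40 points above the plate without the antibiotic, then above 30% in a dose series; inconclusive = first-round hits that could not be retested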;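 note: growth measured after seven days incubation then overnight dye step; 0% = bacteria only wells and 100% = bacteria with antibiotic; twin plates without the antibiotic show which effects depend on it; some results filed as inactive read as strong as hits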
Mtb growth – M. tuberculosis H37Rv growth inhibitors, H37Rv strain (AID 1626) | inhibition, % at 10 µM, or IC50 in µM where a hit was titrated | hit rate 0.95% among 220,000 | M. tuberculosis H37Rv growth inhibition; higher % means a stronger effect;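 active = confirmed in a dose series; inconclusive = inhibition above 80% but not taken into the dose series; inactive = below 80% or under 30% at every dose of the series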;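 note: bacteria incubated seven days before Alamar blue readout; 0% = bacteria only wells and 100% = bacteria with antibiotic wells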
YopH PTP inh – YopH (Yersinia) phosphatase inhibition. fluorescence Ex485/Em525. inhibition, %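 (about 10 µM by stock and volumes)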. hit rate 0.16% among 140,000. AID 898;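 active = inhibition of 50% or more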;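 note: controls were vehicle for no effect and minimum signal wells for full effect; inactives centre near -20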
Arbovirus inh – antivirals against arbovirus infection; arbovirus infection cell-based antiviral screen; inhibition, % at 10 µM; hit rate 0.37% among 200,000; AID 1251;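 active = inhibition from about 30%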;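 note: bluetongue infection of BSR cells; cell survival read as ATP light after 72 h; 0% = infected wells without compound and 100% = uninfected wells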
Arbovirus inh repeat – further read-out of Arbovirus inh, marked with its call; inhibition, %; measured here: 10K subset replicate screen; many hits read low in the repeat;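 first of two repeat runs on a subset; 0% = infected and 100% = uninfected wells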
The depositor's hits bear a star; ? = inconclusive; nt = not tested or not shown.

SMILES	RecA intein inh	Mtb bLac sens	Mtb growth	YopH PTP inh	Arbovirus inh	others
O=C(COC(=O)c1cccc([N+](=O)[O-])c1)c1ccc(OCc2ccccc2)cc1	-5.5	-1	13%	-56	6
Cc1ccnc(NC(=O)c2ccc3[nH]c(=O)c(=O)[nH]c3c2)c1	0.2	3	nt	nt	nt
COc1ccc2c(c1)c(CCNNC(=O)C(C)(C)C)c(C)n2C(=O)c1ccc(Cl)cc1	9.9	-7	0%	nt	nt
COc1ccc(N2C(=O)C3CCCN3C2c2cc(OC)c(OC)c(OC)c2)cc1 (centres undefined)	2.7	1	-7%	-15	5
Cc1noc(C)c1CSCC(=O)Nc1cc(S(C)(=O)=O)ccc1Cl	-2.5	0	nt	nt	nt
O=C(Cc1cccs1)NCc1ccc(Cl)cc1	0.5	6	nt	nt	nt
Cc1ccc(Oc2ccc(/C=N/O)cn2)cc1	1.0	8	4%	-6	-12
O=C(Nc1ccc(S(=O)(=O)NCC2CCCO2)cc1)c1cnccn1 (centres undefined)	-0.7	-8	-4%	nt	3
Cn1c(=O)n(CCOc2ccc(Cl)cc2Cl)c2ccccc21	-0.2	-1	-6%	-16	-25
O=C(O)c1ccc(-n2nnc3ccccc32)c([N+](=O)[O-])c1	1.3	1	nt	nt	nt
O=C(O)c1ccccc1Nc1ccccc1C(=O)O	-1.7	2	3%	-14	6
OCCNc1nc(NCCC2=CCCCC2)nc(N2CCOCC2)n1	4.2	-5	9%	-1	-1
O=[N+]([O-])c1cc(S(=O)(=O)Nc2ccccc2)ccc1N1CCN(c2ccccc2)CC1	12	98	15µM*	-11	-23
COc1ccc(OC)c(S(=O)(=O)NC2CC2)c1	-0.7	5	nt	nt	nt
Cc1ccc(Oc2ccc(S(=O)(=O)NCC(C)(C)N3CCOCC3)cc2)cc1	1.4	-1	nt	nt	nt
O=C(CN1C(=O)CC(c2ccccc2)S(=O)(=O)c2ccccc21)N1CCCCC1 (centres undefined)	-2.2	1	7%	nt	3
CCOC(=O)Nc1ccc(C(N)=O)cc1	-1.6	-7	-12%	-28	-2
COc1cccc(CNC(=O)c2cccc(Br)c2)c1	0.2	3	4%	-28	-6
O=C(Nc1nccs1)c1ccc(S(=O)(=O)N2CCOCC2)cc1	1.5	0	-2%	nt	-4
COc1ccccc1C(=O)NCC(=O)N=Nc1c(O)n(C(C)C)c2ccccc12	1.9	2	nt	nt	nt
CC(NC(=O)C(NC(=O)C(Cc1c[nH]c2ccccc12)NC(=O)OC(C)(C)C)C(C)C)C(N)=O (centres undefined)	-1.9	-8	2%	nt	7
COc1ccc(NC(=O)COc2ccccc2)cc1Cl	0.8	91	nt	nt	nt
COc1cccc(/C(O)=C/c2nc3ccc(C(=O)NCCc4ccc(Cl)cc4)cc3[nH]c2=O)c1	-7.6	nt	-18%	-56	-38
COc1cc(C(=O)Nn2cnnc2)ccc1OC(F)F	-2.6	-2	nt	nt	nt
O=C(Nc1ccccc1)/C(=C\c1ccc2c(c1)OCO2)NC(=O)c1ccco1	1.0	-3	-2%	-20	-5
COc1ccc(/C=N/NC(=O)c2cc(C)oc2C)cc1OC	4.7	18	-9%	nt	nt
Cc1nc(N)sc1C(=O)Nc1ccccc1	3.7	5	-8%	-7	2
O=C(NCCC1CCCCN1S(=O)(=O)c1ccccc1)C(=O)NCc1ccccc1F (centres undefined)	-1.2	-4	nt	nt	nt
Cn1c(=O)n(C)c2cc(/C=N/NC(=S)NCc3ccccc3)ccc21	1.8	0	53%	-45	-23
CC(C)(C)n1nnnc1C(c1ccccn1)N1CCN(C(c2ccccc2)c2ccccc2)CC1 (centres undefined)	15	12	-4%	nt	-6
CCc1nnc(NS(=O)(=O)c2ccc(NC(=O)c3cc(Cl)ccc3OC)cc2)s1	1.1	-5	nt	nt	nt
O=C(NC1c2ccccc2-c2ccccc21)c1ccccc1	0.7	2	-4%	-22	-12
O=P(O)(O)C#Cc1ccccc1	nt	nt	nt	-22	0
O=C1NC(=O)N(Cc2ccc(F)cc2)C(=O)/C1=C\c1ccoc1	2.1	11	-8%	nt	nt
CC(=O)NC(Cc1ccc(F)cc1)C(=O)NC1CCN(C(=O)Nc2ccc(F)cc2)CC1 (centres undefined)	2.0	5	nt	nt	nt
CCC(=O)c1ccc(OCC(=O)OCC(=O)NCCC2=CCCCC2)cc1	-0.5	5	nt	nt	nt
Cc1ccc(S(=O)(=O)CCC(=O)OCC(=O)NCCc2ccc(F)cc2)cc1	-0.3	3	nt	nt	nt
Cc1ccc2[nH]c(=S)cc(C)c2c1	-1.0	?	0%	-32	0
CCOC(=O)c1noc(C)c1C(=O)Nc1nccs1	2.2	0	-2%	nt	4
CC(=O)Oc1ccccc1-c1nc(C)nc(N(C)C(C)=O)n1	-1.8	0	-2%	-9	-6
Cc1ccc(-n2c(=O)c3ccccc3n(CC(=O)NCc3ccco3)c2=O)cc1	0.9	-7	3%	nt	-1
Cc1oc2cc(O)ccc2c(=O)c1Oc1ccccc1Br	0.6	5	-2%	-22	12	Arbovirus inh repeat=-2
COc1ccccc1N1CCN(C(=O)c2cccc(NC3=NC4CS(=O)(=O)CC4S3)c2)CC1 (centres undefined)	-5.4	-2	nt	nt	nt
Cc1ccc(C(c2nnnn2CS(=O)(=O)c2ccc(C)cc2)N2CCCC2)cc1 (centres undefined)	0.4	9	4%	nt	0
Cc1sc(NC(=O)C2CCCO2)c(C#N)c1C (centres undefined)	-3.3	-8	-2%	-36	-7

Entries from the list above that contain bromine (2):
SMILES	RecA intein inh	Mtb bLac sens	Mtb growth	YopH PTP inh	Arbovirus inh	others
COc1cccc(CNC(=O)c2cccc(Br)c2)c1	0.2	3	4%	-28	-6
Cc1oc2cc(O)ccc2c(=O)c1Oc1ccccc1Br	0.6	5	-2%	-22	12	Arbovirus inh repeat=-2

Following part:
SMILES	RecA intein inh	Mtb bLac sens	Mtb growth	YopH PTP inh	Arbovirus inh	others
C[C@H]1C(=O)N(C)CCN1Cc1cn(C)nc1-c1ccc(Oc2ccccc2)cc1	3.1	-1	-1%	nt	5
COc1ccc2c(c1)c(C(=O)O)c(C)n2-c1ccc(Cl)cc1	-0.5	-2	nt	nt	nt
C/C(=N\NC(=O)c1cc(-c2ccncc2)nc2ccccc12)c1ccc(OC(F)F)cc1	0.7	1	0%	nt	2
O=C(COC(=O)CNS(=O)(=O)c1cccc(Br)c1)Nc1ccccc1Sc1ccccc1	1.3	10	2%	-21	6
COc1cccc(-n2cnc3c(sc4nc(N5CCOCC5)c5c(c43)CCCC5)c2=O)c1	5.9	0	2%	nt	-16
CN(C)c1ccc2c(c1)N=C(c1ccco1)OP2(=S)N1CCOCC1 (centres undefined)	-1.3	10	-9%	-44	-13
COc1ccc(CCNC(=S)NC(=O)/C=C/c2ccc(C)cc2)cc1OC	4.5	11	-6%	-30	nt
CC(C)CC(C(=O)Nc1oc(-c2ccco2)c(-c2ccco2)c1C#N)N1C(=O)c2ccccc2C1=O (centres undefined)	4.3	2	1%	-39	-5
O=C(O)c1ccc(N2C(=O)CC(SC(=NCc3ccc4c(c3)OCO4)Nc3ccc(F)cc3)C2=O)cc1 (centres undefined)	9.7	74	14%	nt	19
CCn1c(SCC(=O)Nc2ccccc2C(=O)OC)nnc1-c1ccoc1C	0.5	0	1%	-40	2
Cc1ccc2[nH]cc(/C=C/c3cc[n+](C)cc3)c2c1	1.7	2	nt	nt	nt
Cc1ccccc1N1CCN(C2CCCN(C(=O)CCN3CCCO3)C2)CC1 (centres undefined)	0.5	-2	nt	nt	nt
Cc1c(NC(=O)c2ccc(CN3CCc4ccccc4C3)cc2)c(=O)n(-c2ccccc2)n1C	0.0	1	-9%	-28	2	Arbovirus inh repeat=3
CC(=O)C1=C(C)NC(=O)NC1/C=C/c1ccccc1 (centres undefined)	nt	2	-1%	nt	3
COc1cccc(N2CCN(C(=O)CCCCCn3c(=S)[nH]c4cc5c(cc4c3=O)OCO5)CC2)c1	0.1	2	nt	nt	nt
CCOC(=O)C1Nc2ccc(C(F)(F)F)cc2C2C=CCC12 (centres undefined)	1.2	65	-16%	nt	nt
O=C(Nc1ccc(Cl)cc1)N1CCCC1	-0.7	-1	1%	-1	-4
CCNC(=O)Nc1ccc(-n2nc(C)c(C(=O)OCC)c2C)nc1	-2.0	0	-4%	nt	1
COc1ccc(OCC(=O)N(Cc2cccs2)C2CCS(=O)(=O)C2)cc1 (centres undefined)	-0.7	7	nt	nt	nt
N/C(=N\OC(=O)c1cccs1)c1cccnc1	-0.4	-6	nt	nt	nt
C[n+]1ccccc1/C=C/c1ccc(C#N)cc1	-0.3	3	nt	nt	nt
Cc1ccc(-c2[nH]c(-c3ccc(Cl)cc3)nc2SCC(=O)NCC2CCCO2)cc1 (centres undefined)	0.7	-3	2%	-4	0
COc1ccc(OC)c(S(=O)(=O)NCCc2ccccc2)c1	0.5	7	-4%	-14	7
CCn1c(SC(C)C(=O)OC)nnc1-c1c[nH]c2ccccc12 (centres undefined)	-1.5	-10	7%	nt	5
COc1ccccc1NC(=O)CNC(=O)c1ccc([N+](=O)[O-])cc1	-1.1	-5	-6%	nt	1
COC(=O)c1c(NC(=O)Cc2cccs2)sc2c1CCC(C)C2 (centres undefined)	5.0	-2	3%	-46	2
Cc1ccc(NS(=O)(=O)c2ccc(C)c(NC(=O)COc3ccc4ccccc4c3)c2)c(C)c1	3.4	-6	6%	nt	-5
Cc1sc2ncnc(NCC(O)c3ccc([N+](=O)[O-])cc3)c2c1C (centres undefined)	0.0	-2	nt	nt	nt
CN(C)c1cccc(C(=O)NCCCSc2ccccc2)c1	-0.5	-9	nt	nt	nt
CCCn1c(CNc2ccc(Br)cc2)nc2ccccc21	15	2	19%	-51	-12	Arbovirus inh repeat=-25

An excerpt from above in order of count of non-hydrogen atoms, smallest number first.
SMILES	RecA intein inh	Mtb bLac sens	Mtb growth	YopH PTP inh	Arbovirus inh	others
CN(C)c1cccc(C(=O)NCCCSc2ccccc2)c1	-0.5	-9	nt	nt	nt
COC(=O)c1c(NC(=O)Cc2cccs2)sc2c1CCC(C)C2 (centres undefined)	5.0	-2	3%	-46	2
Cc1ccc(NS(=O)(=O)c2ccc(C)c(NC(=O)COc3ccc4ccccc4c3)c2)c(C)c1	3.4	-6	6%	nt	-5

(further entries)
SMILES	RecA intein inh	Mtb bLac sens	Mtb growth	YopH PTP inh	Arbovirus inh	others
COc1ccccc1CN1CC(C(=O)NCc2ccc(N3CCCC3=O)cc2)CCC1=O (centres undefined)	1.1	-2	nt	nt	nt
CCn1cc(C(=O)NC(C)C)c(=O)c2cc(F)c(N3CCN(C(=O)c4ccco4)CC3)cc21	-0.6	28	nt	nt	nt
COc1cccc(CNC(=O)CCC2CCCN(C(=O)Cc3ccccc3F)C2)c1 (centres undefined)	0.6	-12	7%	nt	15
Cc1cc(C(=O)Nc2ccc(Cl)cc2)n(-c2ccccc2)n1	4.3	15	nt	nt	nt
Cc1ccc(C(c2c(O)nc3n(c2=O)CCS3)c2c(O)nc3n(c2=O)CCS3)cc1	-0.2	-2	-4%	-26	-3
Cc1oc(C(C)(C)C)cc1C(=O)NCc1ccc2c(c1)OCO2	1.5	-3	0%	nt	nt
CC(=O)Nc1cccc(NC(=O)CCc2ccccc2)c1	0.5	-9	-3%	-2	7
CCCn1c(SCC(=O)NC(C)(C)C)nnc1-c1ccco1	-1.0	-1	-10%	nt	3
CCCCN1C(=O)CC(Sc2ccccc2C(=O)O)C1=O (centres undefined)	nt	0	3%	-3	0
O=C(Nc1nnc(S(=O)(=O)Nc2ccccc2)s1)C1CCCCC1	0.4	0	nt	nt	nt
C=CCNC(=O)C(=O)NCCOc1ccccc1Cl	-4.4	7	5%	-29	-15
CC(NC(=O)NCCCC(=O)O)(C(F)(F)F)C(F)(F)F	0.3	-7	-3%	-7	6
COc1ccc(CN(C(=S)Nc2ccccc2)C2CC(=O)N(c3ccccc3)C2=O)cc1 (centres undefined)	-4.9	-1	3%	-20	4
O=C(NCCc1ccccc1)C1CCN(S(=O)(=O)N2CCCCCC2)CC1	1.2	-3	5%	nt	-3
N#CCCn1c(C(C#N)(CCC#N)CCC#N)nc2ccccc21	-1.6	1	-3%	-24	1	Arbovirus inh repeat=0
COc1cc(OC)cc(C(=O)NCC(=O)N2CCC(C)CC2)c1	nt	-2	2%	-25	-2
OC(c1ccccc1)c1nccc2ccccc12 (centres undefined)	1.7	-9	-4%	nt	-4
CCOc1cc(C(C(=O)NCC2CCCO2)N(C(=O)Cn2nnc3ccccc32)c2ccc(C(C)=O)cc2)ccc1O (centres undefined)	-0.6	-6	nt	nt	nt
COc1cccc(C2C(C#N)=C(N)Oc3c2oc(CO)cc3=O)c1OC (centres undefined)	-3.2	16	-11%	-40	5
Cc1ccc(NC2=C(N3CCCCC3)C(=O)c3ccccc3C2=O)cc1	67*	1	-5%	76*	5
CCOC(=O)c1c(C)nc(C)c(C(=O)OCC)c1-c1ccc(Br)cc1	8.3	5	2%	-35	2

Assay outcomes from PubChem BioAssay.

Not all compounds are listed; rates above refer to the full screens.
